# 2A StopGo: FMDV 2A StopGo reporter, luciferase signal; human cells with a luciferase reporter of 2A StopGo recoding; control for the full effect not named in the record; Potency, µM (top dose mostly 57.9 µM), for inactives: top-dose signal change, negative = less light; 410,000 tested, 1.2% active; AID 1159524; active = well fitted falling curve with a large enough effect; inconclusive = small, poorly fitted or top-dose-only effect; inactive = no such curve, though single readings can be large or run the other way; tested in HEK293T cells; note: % is set by controls: 0 for no effect and ±100 for the full control effect; nearly all actives have a fitted effect of over 45% in size; luciferase light after 4 h
# Cruzain inh noDet: inhibitors of Trypanosoma cruzi cruzain without detergent; Potency, µM, for inactives: max response, negative = inhibition, usual class: inhibitors; 200,000 tested, 2.3% active; P25779; purified cruzain, Z-FR-AMC fluorescence, no detergent; active = well fitted curve in the direction sought with a large enough effect; inconclusive = small, poorly fitted or top-dose-only effect, or another doubt; inactive = no such curve, though single readings can be large; an effect the other way counts as inactive or inconclusive;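 note: plate controls were enzyme without inhibitor for no effect and buffer without enzyme for full effect; nearly all actives have a fitted effect of over 40% in size; top concentration of the series not given in the record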
# Target sequence (P25779 123-467 limits assumed): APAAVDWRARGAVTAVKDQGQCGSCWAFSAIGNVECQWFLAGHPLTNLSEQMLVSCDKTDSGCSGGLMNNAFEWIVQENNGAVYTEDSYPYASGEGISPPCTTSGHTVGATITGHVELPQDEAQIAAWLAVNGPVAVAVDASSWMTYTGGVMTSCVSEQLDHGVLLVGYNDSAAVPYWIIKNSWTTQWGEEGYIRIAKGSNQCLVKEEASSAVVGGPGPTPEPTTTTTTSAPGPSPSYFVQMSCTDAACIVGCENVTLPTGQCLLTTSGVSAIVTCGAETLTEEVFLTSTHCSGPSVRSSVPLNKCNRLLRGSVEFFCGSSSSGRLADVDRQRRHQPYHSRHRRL
#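 Detergent-free condition (0.00005% Triton X-100) in acetate buffer pH 5.5 with DTT. 1.5 nM enzyme and compound were pre-mixed 15 min, then 2 uM Z-FR-AMC substrate added; reaction progress from fluorescence change between first and third reads (60 s).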
# SARS PLpro yeast: inhibitors of SARS-CoV papain-like protease in yeast | AID 485353 | 330,000 tested, 0.19% active | S. cerevisiae expressing SARS-CoV PLpro, growth rescue; control for the full effect not named in the record | Potency, µM (series often up to 32.9 µM), inactives show at the top dose activity, positive = growth rescue; note: 0% is about no effect; nearly all actives have a fitted effect of over 55% in size; growth read by luminescence after 48 h
# Marburg entry inh: Marburg virus entry inhibition; Potency, µM (highest dose often 37.8 µM), for the others: top-dose activity change, negative = inhibition, hits mostly inhibitors; 300,000 tested, 1.8% active; Marburg virus pseudotyped entry inhibition, cell reporter; control for the full effect not named in the record; about a third of the inactives were read at about 46 µM; AID 540276; active = well fitted inhibition curve with a large enough effect; inconclusive = small, poorly fitted or top-dose-only effect, or effect the other way; inactive = flat fitted curve, though single readings scatter; tested in HEK293 cells; about a fifth of its hits are not listed in these tables; note: % is set by controls: 0 for no effect and ±100 for the full control effect; luciferase read-out
# RE007 growth inh: less growth of the S. pombe RE007 Vpr strain | S. pombe RE007 Vpr strain, BacTiter-Glo ATP luminescence, 24 h; control for the full effect not named in the record | Potency, µM (doses to about 92.2 µM), for inactives: at the highest dose activity change, negative = less growth | 360,000 tested, 0.21% active | AID 651644; active = well fitted falling curve with a large enough effect; inconclusive = small, poorly fitted or top-dose-only effect; inactive = no such curve, though single readings can be large or run the other way;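 note: % is set by controls: 0 for no effect and ±100 for the full control effect; nearly all actives have a fitted effect of over 50% in size; the assay follows cell death caused by Vpr and the record does not say whether a fall means rescue or toxicity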
#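 Fission yeast strain RE007, carrying one chromosomally integrated HIV-1 vpr copy, was seeded at OD 0.01 in PMG+AL medium with 23 nL pinned compound. After 24 h at 30 °C and 99% humidity, viability was read by BacTiter-Glo luminescence.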
# Cruzain Triton: cruzain (T. cruzi) inhibition with detergent. P25779. purified cruzain, Z-FR-AMC fluorescence, 0.01% Triton. Potency, µM, inactives show max response, negative = inhibition, most hits filed as inhibitors. 200,000 tested, 0.43% active; active = well fitted curve in the direction sought with a large enough effect; inconclusive = small, poorly fitted or top-dose-only effect, or another doubt; inactive = no such curve, though single readings can be large; an effect the other way counts as inactive or inconclusive;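 note: plate controls were neutral wells for no effect and buffer without enzyme for full effect; nearly all actives have a fitted effect of over 40% in size; top concentration of the series not given in the record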
#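 Read-out: AMC fluorescence (360 nm excitation, 450 nm emission), four reads over 2 min, first-to-third difference used. Conditions: cruzain 1.5 nM, Z-FR-AMC 2 uM, pH 5.5 acetate, 5 mM DTT, 0.01% Triton X-100.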
# NS1 inh: blocks influenza NS1 protein function. S. cerevisiae slowed by influenza A NS1, growth recovery by OD600. Potency, µM (titrated, usually from 46.1 µM), inactives show top-dose activity, positive = more growth. 270,000 tested, 0.4% active. AID 2326; note: actives are rising curves; nearly all actives have a fitted effect of over 50% in size
#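 A cell-based growth assay was used: compounds that relieve NS1-induced slow growth of budding yeast raise OD600. Assay medium was yeast nitrogen base with ammonium sulphate and -URA supplement, pH 6.0, with 2% galactose.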
# Lassa entry inh: blocks Lassa virus binding to or entry into cells; AID 540256; 300,000 tested, 1.2% active; Lassa virus pseudotype entry inhibition, cell reporter; control for the full effect not named in the record; Potency, µM (titrated, usually from 37.9 µM), inactives show top-dose activity change, negative = inhibition, actives largely listed as inhibitors; active means well fitted inhibition curve with a large enough effect; inconclusive means small, poorly fitted or top-dose-only effect, or effect the other way; inactive means flat fitted curve, though single readings scatter; tested in HEK293 cells; note: % is set by controls: 0 for no effect and ±100 for the full control effect; nearly all actives have a fitted effect of over 50% in size; luciferase read-out
# The depositor's hits bear a star; ? = inconclusive; . = no result given; & = joins results of further samples; [ ] = remark or other dose. Unless noted, calls come from the whole dose curve; as a rule, active means well fitted rising curve with a large enough effect; inconclusive means small, poorly fitted or top-dose-only effect; inactive means no such curve, though single readings can be large or run the other way. Potency is the fitted concentration of half-maximal effect.
molecule,2A StopGo,Cruzain inh noDet,SARS PLpro yeast,Marburg entry inh,RE007 growth inh,Cruzain Triton,NS1 inh,Lassa entry inh
O=C(NC1CCCCCCC1)c1cc(COc2ccc3ncccc3c2)on1,3.55µM*,.,2.6%,-19.0%[46.1 µM],1.0%,.,-15.4%,?
COc1ccc(CCNc2oc(COc3ccccc3F)nc2C#N)cc1OC,-0.4%,19.3%,-14.3%,?,24.2%,-3.6%,-132.6%,?
O=C(NNS(=O)(=O)c1ccccc1)C1CC(c2cccnc2)=NO1 (stereo unspecified),3.2%,.,1.3%,?,9.0%,.,.,1.7%
CC(C)c1ccc(C(=O)NCCCN(C)C)cc1,5.5%,-1.1%,-7.3%,4.4%,.,-1.5%,11.7%,10.8%
O=C(Nc1cc(SCCO)cc([N+](=O)[O-])c1)c1ccco1,0.0%,-0.5%,-4.0%,?,.,-4.0%,-0.4%,-19.9%
Cc1ccc2nsnc2c1S(=O)(=O)NCc1cccnc1,9.6%,-11.6%,3.6%,14.9%,8.5%,-4.9%,3.3%,14.1%
COc1ccc(S(=O)(=O)NCCS(=O)(=O)N2CCN(c3ccccc3)CC2)cc1OC,14.0%,-5.9%,.,.,.,-2.3%,.,4.0%[46.1 µM]
COc1ccccc1NC(=O)c1ccc(S(=O)(=O)NCc2ccco2)cc1,18.5%,.,-4.8%,-11.2%[46.1 µM],8.2%,.,4.0%,-12.6%
CCC(C(=O)O)N1C(=O)c2ccccc2C1=O (stereo unspecified),.,2.8%,1.4%,20.8%,-6.6%,-0.1%,-0.6%,14.6%
Cc1nc(-c2ccc(NC(=O)C3CCCCC3)cc2)cs1,24.0%,6.5%,-2.7%,24.0%,-11.6%,0.7%,-5.2%,?
CCc1cccc(NC(=O)c2c(C)oc3nc(C)nc(N4CCCC4)c23)c1,-5.9%,3.0%,.,.,.,-2.9%,.,7.8%[46.1 µM]
CCC(C)C(NC(=O)c1ccccc1NC(=O)c1ccco1)C(=O)NNC(=O)c1ccncc1 (stereo unspecified),-7.2%,.,-0.1%,?,4.1%,.,3.4%,?
O=C(c1cccs1)N1CCN(S(=O)(=O)c2ccc(F)cc2)CC1,-24.5%,.,0.7%,-8.5%[46.1 µM],0.8%,.,-1.0%,2.7%[46.1 µM]
CCOc1ccc(C(c2c(O)nc(SC)n(C)c2=O)c2c(O)nc(SC)n(C)c2=O)cc1,-16.0%,3.9%,3.5%,-17.7%,4.3%,0.3%,-8.6%,-7.0%
COc1ccc(CNC(=O)CCCn2nc(C)c([N+](=O)[O-])c2C)cc1,-9.2%,-2.3%,-22.7%,?,-2.4%,-0.4%,-5.4%,-5.0%
COc1ccc(C(=O)c2cn(Cc3ccccc3)c3ccccc3c2=O)cc1OC,?,-3.7%,.,2.7%[46.1 µM],.,-4.0%,.,-20.1%[46.1 µM]
CCCc1cc(=O)[nH]c(SCc2nc3ccc([N+](=O)[O-])cc3[nH]2)n1,-19.4%,-4.3%,8.2%,25.6%[46.1 µM],-0.1%,-6.2%,20.8%,-0.3%
Cc1ccc(C(C(=O)Nc2ccc3c(c2)OCO3)N(C)C(=O)Cc2c[nH]c3ccccc23)cc1 (stereo unspecified),-12.9%,-3.0%,11.1%,10µM*,21.2%,-7.3%,?,?
CN1C(=O)NC(c2ccc([N+](=O)[O-])cc2)C2=C1CC(C)(C)CC2=O (stereo unspecified),-19.9%,.,2.7%,.,-2.2%,.,3.7%,.
CCc1ccc(CNC(=O)c2ccc3c(c2)N=C(C)c2cc(C)ccc2S3)cc1,-11.4%,?,.,?,.,-2.5%,.,?
C=CCN(c1ccccc1)S(=O)(=O)c1cccc(C(=O)NNC(=O)c2ccncc2)c1,-11.4%,.,4.3%,-22.0%[46.1 µM],1.5%,.,.,-21.4%
COc1ccc(-c2nn(CCC#N)cc2C(=O)O)cc1,-7.9%,.,0.4%,8.5%,18.7%,.,.,5.1%
CCOC(=O)c1cnc(COc2ccc(OC)cc2)[nH]c1=O,-7.2%,.,-0.1%,3.4%,-3.4%,.,-4.4%,9.8%
COc1cccc(CNC(=O)Cn2nc([N+](=O)[O-])c(Br)c2C)c1,-1.3%,.,-3.7%,-2.9%[46.1 µM],-8.9%,.,20.1%,-3.1%[46.1 µM]
C=CCn1c(CNS(=O)(=O)c2ccc(Br)cc2)n[nH]c1=S,-6.6%,.,5.5%,.,10.0%,.,0.2%,.
CCc1cccc(NS(=O)(=O)c2ccc3c(c2)CC(C)N3C(=O)C2CC2)c1 (stereo unspecified),-0.2%,-17.4%,.,.,.,-7.7%,.,-23.8%[46.1 µM]
COc1ccccc1N1CCN(C(CNC(=O)C(=O)NCCc2ccccc2)c2cccnc2)CC1 (stereo unspecified),25.1µM*,?,.,.,.,-5.5%,.,-27.9%[46.1 µM]
CCNC(=O)Cn1cc(C(F)(F)F)cc(Cl)c1=O,23.9%,.,0.6%,.,9.6%,.,5.9%,.
CCOC(=O)C1CCN(C(=O)CN(c2ccc(OC)c(OC)c2)S(=O)(=O)c2ccccc2)CC1,0.0%,?,-1.2%,16.7%&16.7%,0.7%,-3.7%,-2.6%,-1.6%
Cc1ccc(CNCc2ccccc2Cl)s1,10.0%,-0.9%,.,20.6%[46.1 µM],.,1.2%,.,27.7%[46.1 µM]
CCCOc1ccccc1/C=C1/C(=O)ON=C1C,?,.,3.0%,.,2.4%,.,3.5%,.
CCOC(=O)C1CCN(S(=O)(=O)c2ccc(OC)c(C(=O)N3CCCCC3)c2)CC1,-12.1%,.,1.6%,-27.3%[46.1 µM],14.1%,.,1.3%,.
Cc1cc(S(=O)(=O)NCC2CCCO2)c(C)cc1Br (stereo unspecified),100.3%[activator],.,-8.2%,.,3.0%,.,-0.5%,.
O=C(CSc1nnnn1-c1ccccc1Cl)Nc1ccc2c(c1)OCCO2,-6.7%,1.2%,-5.6%,-0.6%,5.3%,-1.9%,-17.2%,.
CC(C)CNC(=S)NC1CC2CCCC(C1)N2Cc1ccco1 (stereo unspecified),.,-3.7%,1.2%,?,7.4%,2.1%,0.6%,13.1%
O=C(COc1ccc(S(=O)(=O)NC2CCCCC2)cc1)N1CCN(c2cccc(Cl)c2)CC1,?,?,1.3%,?,-0.9%,-4.3%,?,?
Cc1ccccc1/C=N/N=C1/NC(=O)CCS1,56.9%[activator],.,-0.9%,6.9%[46.1 µM],-24.4%,.,-2.7%,-32.2%
CC(=O)Nc1ccc(C(=O)n2nc(C)cc2C)cc1,-19.3%,-0.4%,11.3%,4.9%,0.3%,-1.3%,-4.6%,-0.2%
CCOC(=O)C1CCN(C(=O)C(C)Sc2ccc(Cl)cc2)CC1 (stereo unspecified),18.1%,6.4%,8.3%,12.1%,-4.0%,-2.1%,3.0%,10.0%
CC(Oc1ccccc1)C(=O)Nc1c2c(nn1-c1ccccc1)CS(=O)C2 (stereo unspecified),-13.5%,.,0.3%,3.8%,1.2%,.,2.9%,-3.2%
Cc1cccc(N=C2Sc3nc4c(C)c(C)ccc4cc3CN2CCN2CCOCC2)c1,-29.3%,?,-9.4%,16.4µM*,5.0%,-6.9%,16.9%,23.1µM*
Cc1ccc(-c2c(C)n3c4c(=O)n(C)c(=O)n(C)c4nc3n2-c2cccc(O)c2)cc1,-19.0%,-4.8%,.,9.7%[46.1 µM],.,-0.5%,.,?
O=C(O)c1ccc(CSc2nc3ccccc3[nH]2)cc1,3.2%,.,-9.2%,.,-9.7%,.,3.7%,.
Cc1cc(=O)oc2c(C)c3occc3cc12,1.7%,.,-2.3%,-4.2%[46.1 µM],0.7%,.,-13.9%,28.0%[46.1 µM]
Cc1c(NC(=O)CSCc2ccc(Cl)cc2Cl)cccc1C(=O)O,10.3%,.,11.8%,4.0%,-11.3%,.,1.9%,12.8%
CC(=O)c1ccc(N2C(=NC(=O)C3CCCCC3)SC3CS(=O)(=O)CC32)cc1 (stereo unspecified),27.0%,.,-0.3%,-13.0%[46.1 µM],7.2%,.,12.2%,7.4%[46.1 µM]
O=S1(=O)CCN2N=C(C3CC3)SC2=N1,1.9%,.,0.6%,-0.8%[46.1 µM],4.6%,.,.,7.1%
COCCNC(=O)Nc1ccc2c(c1)N(C)C(=O)c1ccccc1S2,-10.5%,.,-0.2%,-15.4%[46.1 µM],4.6%,.,0.4%,-17.6%
O=C1C(C=NCc2cccnc2)=C(O)c2ccccc21,-34.4%,-9.5%,-1.8%,0.3%,-9.1%,-2.9%,-4.4%,?
COc1ccccc1N1CCN(C(=O)c2cc(-c3ccc(F)cc3)[nH]c2C)CC1,?,.,-4.2%,.,4.1%,.,2.3%,.
C#Cc1ccc([C@@H]2C=C(C(=O)NCc3ccccc3)O[C@H](OCC)[C@H]2CCCO)cc1,-2.8%,.,-0.1%,.,-12.8%,.,0.1%,.
CCOc1ccccc1N1CC(C(=O)N(CC)CC(=O)Nc2ccc3c(c2)OCCO3)CC1=O (stereo unspecified),-0.6%,.,1.2%,?,10.5%,.,.,2.2%
COc1ccc(C(=O)NN)cc1COc1ccc(Br)cc1,-11.1%,2.2%,-1.2%,0.6%,1.1%,-4.0%,?,-27.9%
Cc1cc(C)c(S(=O)(=O)Nc2cccnc2)c(C)c1,50.8%[activator],4.0%,-13.3%,-1.1%,8.3%,6.6%,2.8%,-4.6%
Cc1ccc(NC(=O)c2ccc(-n3c(C)nnc3C)cc2)cc1F,-3.5%,-7.4%,.,.,.,-2.8%,.,15.0%[46.1 µM]
O=C(NCc1cccs1)C1CCN(S(=O)(=O)c2ccccc2F)CC1,-23.5%,.,-0.2%,.,26.3%,.,8.7%,.
O=C(COC(=O)c1cccc([N+](=O)[O-])c1)NCc1cccs1,-11.4%,.,3.5%,.,13.7%,.,-3.2%,.

# Source: PubChem BioAssay (National Center for Advancing Translational Sciences (NCATS))

# Outcome played no part in choosing rows. Share with any hit: about 4.7%.
